TsaE inh: inhibitors of E. coli YjeE (TsaE) | P0AF67 | purified YjeE, fluorescence polarisation of a bound ADP probe | Potency, µM | actives 0.05% (n = 71,000) | AID 605; active = well fitted falling curve; inconclusive = weaker or top-dose-only fall, or a rising curve; inactive = flat or poorly fitted curve;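 also: top concentration of the series not given in the record; excess ADP was the control for the full effect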
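Purified YjeE (10 uM) with BODIPY Texas Red-labeled ADP probe (2 uM); compounds pin-transferred, 15 min at room temperature. Binding inhibition read as decreased fluorescence polarization; ADP titration as control.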
PK Bst: alters activity of Bacillus stearothermophilus pyruvate kinase; partly purified Bacillus stearothermophilus pyruvate kinase, luminescence ATP production; ribose 5-phosphate activator present at AC10; Potency, µM; actives 1.2% (n = 51,000); AID 361; in the data active means potency below about 11 µM; inconclusive means mostly about 12 µM to 25 µM; inactive means weaker than that;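 the screen sought inhibitors and activators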;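 also: potency is read from the fitted curve at half-maximal effect; scaled between full activation by ribose 5 phosphate and full inhibition by luteolin; about four in five hits inhibit and the cells do not say which; series up to 57 µM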
* marks the source's active call; other numbers are inactive results. Some of the compounds tested; the hit share may differ from the screen's.

Results for COC(=O)Cn1cnc2c(nnn2-c2ccc(C)cc2)c1=O ?
TsaE inh: inactive; PK Bst: >57

What do the screens show for `O=C(c1ccc2c3c(cccc13)CC2)N1CCOCC1`?
TsaE inh: inactive; PK Bst: inconclusive

Results for Cc1nnc(NC2=NCCCCC2)o1 ?
TsaE inh: inactive; PK Bst: >57

Results for O=C(NCCC1=CCCCC1)C1CC(=O)N(C2CCCCCC2)C1 (stereo not given) ?
TsaE inh: inactive; PK Bst: >57

How did CC(=O)c1cc2c(cc1NC(=O)CN1CCOCC1)OCO2 do in these assays?
TsaE inh: inactive; PK Bst: >57

How did Cc1ccc(S(=O)(=O)N2CCN(C(=O)CSc3nnc(C)c(=O)[nH]3)CC2)cc1 do in these assays?
TsaE inh: inactive; PK Bst: >57

Results for CC(=C1C2C=CC1C1C(=O)NC(=O)C21)c1ccccc1 (stereo not given) ?
TsaE inh: inactive; PK Bst: >57

What do the screens show for `COC(=O)C(C(=O)OC)=C(/C=C/C=C/N(C)C)N(C)C`?
TsaE inh: inactive

Results for Cc1ccc(C(=O)NCCN2CCOCC2)cc1Cl ?
TsaE inh: inactive

How did N#CCCSC(=S)[C@H]1CCCC1=N do in these assays?
TsaE inh: inactive

What do the screens show for `COc1ccc(C)cc1NC(=O)CN1CCN(S(=O)(=O)c2ccc(Cl)cc2)CC1`?
TsaE inh: inactive; PK Bst: >57

How did CC1=C(C(=O)NC2CCC(C)CC2)C2(CCC(C)CC2)OC1=O (stereo not given) do in these assays?
TsaE inh: inactive

What do the screens show for `O=C(NCCCN1CCCC1)c1cccc(N2CCCC2=O)c1`?
TsaE inh: inactive; PK Bst: >57

How did CSc1nc(N)c2ncn([C@H]3O[C@H](COP(=O)(O)OP(=O)(O)OP(=O)(O)O)[C@@H](O)[C@@H]3O)c2n1 do in these assays?
TsaE inh: 79µM*

What do the screens show for `Cc1cc(C)c2c(N)c(C(=O)c3ccccc3)oc2n1`?
PK Bst: >26

How did CCCC(C(=O)NC1CCCC1)N(C(=O)Cn1nnc(-c2ccc(C)o2)n1)C1CCCC1 (stereo not given) do in these assays?
TsaE inh: inactive; PK Bst: >57

Results for CCCc1cc(=O)[nH]c(SCC(=O)CSc2nc(CCC)cc(=O)[nH]2)n1 ?
TsaE inh: inactive; PK Bst: >57

Results for Cc1nn(C)c(C)c1NC(=O)CCSc1nc(-c2ccco2)cc(C(F)(F)F)n1 ?
TsaE inh: inactive; PK Bst: >57

What do the screens show for `COc1ccccc1-n1c(SCC(=O)NC(C)(C)C)nnc1-c1ccco1`?
TsaE inh: inactive; PK Bst: >57

How did O=C(O)CC1C(=O)NCCN1CCCc1ccccc1 (stereo not given) do in these assays?
TsaE inh: inactive

Gathered by group, the compounds so far containing an NH in an aromatic ring (2)
How did Cc1ccc(S(=O)(=O)N2CCN(C(=O)CSc3nnc(C)c(=O)[nH]3)CC2)cc1 do in these assays?
TsaE inh: inactive; PK Bst: >57

Results for CCCc1cc(=O)[nH]c(SCC(=O)CSc2nc(CCC)cc(=O)[nH]2)n1 ?
TsaE inh: inactive; PK Bst: >57

Of the compounds above, 3 have two or more sulfur atoms.
How did Cc1ccc(S(=O)(=O)N2CCN(C(=O)CSc3nnc(C)c(=O)[nH]3)CC2)cc1 do in these assays?
TsaE inh: inactive; PK Bst: >57

How did N#CCCSC(=S)[C@H]1CCCC1=N do in these assays?
TsaE inh: inactive

Results for CCCc1cc(=O)[nH]c(SCC(=O)CSc2nc(CCC)cc(=O)[nH]2)n1 ?
TsaE inh: inactive; PK Bst: >57

Carrying on:
How did Cc1nc2nc[nH]c2cc1Br do in these assays?
TsaE inh: inactive

Results for COCC(=O)N1CCC[C@@]2(CCN(Cc3ccccc3)C2)C1 ?
TsaE inh: inactive

What do the screens show for `Cc1ccc2cc(C(c3nnnn3C3CCCC3)N3CCN(c4ccc(F)cc4)CC3)c(=O)[nH]c2c1` (stereo not given)?
TsaE inh: inactive; PK Bst: >57

How did Cc1ccn2cc(-c3nonc3C)cc2c1 do in these assays?
TsaE inh: inactive

Results for COc1ccc2cc(C(c3nnnn3Cc3ccccc3)N3CCCCCC3)c(=O)[nH]c2c1 (stereo not given) ?
TsaE inh: inactive; PK Bst: >57

Results for CCN(C(=O)COC(=O)c1c(-c2ccccc2)noc1C)C1CCS(=O)(=O)C1 (stereo not given) ?
TsaE inh: inactive; PK Bst: >57

What do the screens show for `Oc1ccc2[nH]cnc2c1CN1CCCCC1`?
TsaE inh: inactive; PK Bst: >57

How did Cc1cc(NS(=O)(=O)c2ccc(NC(=O)c3cnc4scc(C)n4c3=O)cc2)nc(C)n1 do in these assays?
TsaE inh: inactive

Results for COc1ccccc1C(=O)NCCc1nc2ccccc2n1C ?
TsaE inh: inactive; PK Bst: >57

Results for Cc1cc(C)cc(N(C(=O)Cn2nnc3ccccc32)C(C(=O)NCc2ccco2)c2ccncc2)c1 (stereo not given) ?
TsaE inh: inactive; PK Bst: >57

How did NCCCc1c(-c2ccccc2)nc(N)[nH]c1=O do in these assays?
TsaE inh: inactive

What do the screens show for `CCc1cc2c(-c3ccccc3)cc(=O)oc2c(CN2CCOCC2)c1O`?
TsaE inh: inactive; PK Bst: >57

How did Cc1ccc(S(=O)(=O)c2nc(-c3ccco3)oc2SCC(=O)NCC2CCCO2)cc1 (stereo not given) do in these assays?
TsaE inh: inactive; PK Bst: >57

How did CCCNC(=O)C(Cc1ccccc1)NS(=O)(=O)c1ccc2c(c1)CCC(=O)N2 (stereo not given) do in these assays?
TsaE inh: inactive

Results for CCOc1ccc(N2C(=O)CC(N3CCOCC3)C2=O)cc1 (stereo not given) ?
TsaE inh: inactive; PK Bst: >57

What do the screens show for `COc1cc2[nH]c(=O)c(C(=O)NCCCN3CCCCC3)c(O)c2cc1OC`?
TsaE inh: inactive; PK Bst: >57

How did O=C(CN1CCOc2ccccc21)NCc1cccs1 do in these assays?
TsaE inh: inactive; PK Bst: >57

Results for O=C(CCn1c(=O)oc2ccccc21)NCc1ccc2c(c1)OCO2 ?
TsaE inh: inactive

Results for CC(Cc1ccccc1)C(=O)NCc1ccncc1 (stereo not given) ?
TsaE inh: inactive

What do the screens show for `CC(NC(=O)CN1CCN(Cc2ccc(Cl)cc2)C1=O)c1ccc2c(c1)OCCO2` (stereo not given)?
TsaE inh: inactive

How did COc1ccccc1N1CCN(CC(=O)Nc2cc(F)ccc2C)CC1 do in these assays?
TsaE inh: inactive; PK Bst: >57

How did Cc1c2oc3c(C)ccc(C(=O)N[C@@H]4C(=O)N[C@@H](C(C)C)C(=O)N5CCC[C@@H]5C(=O)N(C)CC(=O)N(C)[C@@H](C(C)C)C(=O)O[C@H]4C)c3nc-2c(C(=O)N[C@@H]2C(=O)N[C@@H](C(C)C)C(=O)N3CCC[C@@H]3C(=O)N(C)CC(=O)N(C)[C@@H](C(C)C)C(=O)O[C@H]2C)c(N)c1=O do in these assays?
TsaE inh: inactive

Results for Cc1c(C#N)c2ncnc(N)c2n1-c1ccccc1 ?
TsaE inh: inactive; PK Bst: >57

What do the screens show for `O=C(/C=N/O)Nc1cccnc1`?
TsaE inh: inactive; PK Bst: >57

What do the screens show for `CN(C)c1ccc(N/C=C/C(=O)c2ccc(F)cc2)cc1`?
TsaE inh: inactive; PK Bst: inconclusive

How did COc1ccc(CC2C(=O)OC(C)(C)OC2=O)cc1 do in these assays?
TsaE inh: inactive; PK Bst: >57

What do the screens show for `Cc1cc(N)c2cc(NC(=O)Nc3ccc4nc(C)cc(N)c4c3)ccc2n1`?
TsaE inh: inactive

What do the screens show for `Cn1c(SCc2ccc(Br)cc2)nnc1-c1cccs1`?
TsaE inh: inactive; PK Bst: >57

How did N#Cc1c(NC(=O)c2cc(-n3cnnc3)ccc2Cl)sc2c1CCCC2 do in these assays?
TsaE inh: inactive; PK Bst: >57

Results for CC(=O)N1CCN(S(=O)(=O)c2cccc(C(=O)Nc3ccc4c(c3)CCC4)c2)CC1 ?
TsaE inh: inactive; PK Bst: >57

How did COc1ccc(C(=O)Nn2cc3c(c2-c2ccccc2)c(=O)n(C)c(=O)n3C)cc1 do in these assays?
TsaE inh: inactive; PK Bst: >57

Results for CCCN1CCC(N2CCN(c3cccc(C(F)(F)F)c3)CC2)CC1 ?
TsaE inh: inactive

What do the screens show for `S=c1[nH]ncn1/N=C/c1ccccc1`?
TsaE inh: inactive; PK Bst: >57

Results for CC1=CC(C)(C)Nc2ccc(OC(=O)c3ccco3)cc21 ?
TsaE inh: inactive

What do the screens show for `Cc1ccc(CCSCC(=O)O)cn1`?
TsaE inh: inactive; PK Bst: >57

How did CC(C)CCN1C(=O)CCC1(C)C(=O)NC1CCCCCC1 (stereo not given) do in these assays?
TsaE inh: inactive; PK Bst: >57

How did COc1ccc(S(=O)(=O)N(Cc2cccs2)C2CCCC2)cc1 do in these assays?
TsaE inh: inactive; PK Bst: >57

Results for CCOC(=O)C1CCN(C(=O)c2cccc(C(=O)N3CCC(C(=O)OCC)CC3)c2)CC1 ?
TsaE inh: inactive

What do the screens show for `Cc1cc(C(=O)NCc2ccc(S(N)(=O)=O)cc2)c(C)o1`?
TsaE inh: inactive; PK Bst: >57

What do the screens show for `CC(C)[C@H](CO)Nc1nc(Nc2ccc(C(=O)O)c(Cl)c2)c2ncn(C(C)C)c2n1`?
TsaE inh: inactive

How did COc1ccccc1N1CCN(CCCCN2C(=O)c3ccccc3C2=O)CC1 do in these assays?
TsaE inh: inactive

Results for O=C(NCc1ccco1)c1cccc2ccccc12 ?
TsaE inh: inactive

Results for CCCCC(=O)Nc1sc2c(c1C(N)=O)CCC2 ?
TsaE inh: inactive

What do the screens show for `CCn1c(SCC(=O)N2CCN(c3ccccc3)CC2)nnc1-c1cc2cc(Cl)ccc2o1`?
TsaE inh: inactive; PK Bst: >57

How did CCCc1ccccc1OCCNC(C)=O do in these assays?
TsaE inh: inactive; PK Bst: >57

What do the screens show for `CC1=C(C)NC(=S)SC1`?
TsaE inh: inactive; PK Bst: >57

How did CC1=C(C#N)C(=O)N(C)C(C)(C)C1 do in these assays?
TsaE inh: inactive; PK Bst: >57

Results for COc1cc(-c2nnc(SCC(=O)OC3CCCCC3)o2)cc(OC)c1OC ?
TsaE inh: inactive; PK Bst: >57

What do the screens show for `Cc1cc(NC(=O)CCC(=O)N(c2ccccc2)C(C(=O)NC2CCCC2)c2cccs2)no1` (stereo not given)?
TsaE inh: inactive; PK Bst: >57

How did O=C(COc1ccc(Cl)cc1)OCC(=O)N1CCCCCC1 do in these assays?
TsaE inh: inactive; PK Bst: >57

How did Cc1cccc(NC(=O)CCn2nc(C)cc2C)c1 do in these assays?
TsaE inh: inactive; PK Bst: >57

How did O=C(CCCn1c(=S)[nH]c2cc3c(cc2c1=O)OCO3)N1CCN(c2ncccn2)CC1 do in these assays?
TsaE inh: inactive; PK Bst: >57

What do the screens show for `Cc1ccc(Cn2nnc3c(=O)n(CC(=O)N4CCCCC4)cnc32)cc1`?
TsaE inh: inactive; PK Bst: >57

How did COc1cccc(C2C(C(=O)Nc3cccnc3)=C(C)Nc3nnnn32)c1OC (stereo not given) do in these assays?
TsaE inh: inactive

What do the screens show for `O=C(O)c1ccc(C(=O)c2ccc3c(c2)C(=O)N(Cc2ccco2)C3=O)cc1`?
TsaE inh: inactive; PK Bst: >57

Results for O=c1oc(-c2cccc(S(=O)(=O)N3CCOCC3)c2)nc2ccccc12 ?
TsaE inh: inactive; PK Bst: >57

What do the screens show for `O=S(=O)(NCCc1ccccc1F)c1cccc(S(=O)(=O)N2CCOCC2)c1`?
TsaE inh: inactive; PK Bst: >57

What do the screens show for `CC(=O)c1cccc(NC(=O)CN2C(=O)C3C4C=CC(C4)C3C2=O)c1` (stereo not given)?
TsaE inh: inactive

How did CC(C)Nc1ncnc2c1cnn2-c1ccccc1 do in these assays?
TsaE inh: inactive

What do the screens show for `COc1cccc(/C=C2\N=C(SC)SC2=O)c1OC`?
TsaE inh: inactive

Results for O=C1CC(c2ccco2)=Nc2ccccc2N1 ?
TsaE inh: inactive; PK Bst: >57

How did CC(c1cccnc1)N(CCN(C)C)C(=O)Nc1ccc(Cl)c(Cl)c1 (stereo not given) do in these assays?
TsaE inh: inactive

What do the screens show for `COc1ccccc1NC(=O)c1ccc(COc2ccccc2OC)o1`?
TsaE inh: inactive; PK Bst: >57

How did COc1cc(NC(=O)C2CCCO2)c(C(=O)O)cc1OC (stereo not given) do in these assays?
TsaE inh: inactive; PK Bst: >57

Results for O=C1CN(C(=O)COc2ccccc2)CCN1 ?
TsaE inh: inactive

What do the screens show for `O=C(NC1CCN(Cc2ccccc2)CC1)C1CCN(c2nnc(-n3cccc3)s2)CC1`?
TsaE inh: inactive

How did O=C(c1cc(-c2ccccc2O)on1)N1CCCC1 do in these assays?
TsaE inh: inactive

Results for Cc1onc(-c2ccccc2)c1C(=O)NCc1ccccn1 ?
TsaE inh: inactive; PK Bst: >57

How did CNC(=O)c1cccc(N2CCCC2=O)c1 do in these assays?
TsaE inh: inactive; PK Bst: >57

What do the screens show for `Cn1c(=O)c2c(ncn2CC(=O)OCc2ccccc2)n(C)c1=O`?
TsaE inh: inactive; PK Bst: >57

Results for Fc1cc(F)c(F)c(SCCc2ccncc2)c1F ?
PK Bst: >26

What do the screens show for `Cc1[nH]c2ccccc2c1C(O)CN1CCN(c2cccc(C(F)(F)F)c2)CC1` (stereo not given)?
TsaE inh: inactive; PK Bst: >57

Pulled one by one from the entries so far:
What do the screens show for `O=C(NC1CCN(Cc2ccccc2)CC1)C1CCN(c2nnc(-n3cccc3)s2)CC1`?
TsaE inh: inactive

How did COc1cc(NC(=O)C2CCCO2)c(C(=O)O)cc1OC (stereo not given) do in these assays?
TsaE inh: inactive; PK Bst: >57
